Screening data (PubChem BioAssay)
Rango dissoc inh – prevents RanGTP from dissociating the Rango-importin beta complex; O95149+P62826; Biochemical FRET Rango-importin beta, RanGTP-induced dissociation; Potency, µM (highest dose often 46.1 µM), inactives show at the top dose activity change, negative = inhibition; actives 0.071% (n = 340,000); AID 540253; active means falling FRET ratio curve, often poorly fitted, with flat reads before Ran was added; inconclusive means other falling curves, or compound fluorescence or quenching; inactive means flat or rising ratio curve;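 also: potency is read from the fitted curve at half-maximal effect; % of control where 0% means no effect; nearly all actives have a fitted effect of over 45% in size; -100% = wells without RanGTP and RCC1; the record marks most hits as doubtful in a second field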
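Recombinant Rango FRET biosensor (EYFP–snurportin 1 IBB–cerulean CFP10) at 0.1 uM premixed with 0.25 uM importin beta in PBS, 1 mM DTT, 0.02% Tween-20, 0.1% BSA. Compound added 5 min; RanGTP-RCC1 (0.6 uM Ran, 2 mM GTP, 0.2 uM RCC1) then triggers release, read at 45 min.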
GLA inh pH 4.5 – blocks human alpha-galactosidase A at pH 4.5; 230,000 tested, under 10 active; P06280; purified enzyme, 4-MU-alpha-Gal fluorescence, pH 4.5; activity change, negative = inhibition, % at 105 µM; AID 1467; inconclusive = small, poorly fitted or top-dose-only inhibition, or a rising curve; inactive = flat fitted curve, though single readings scatter; no compound was filed as active;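 also: 0% = full activity with enzyme and -100% = basal without enzyme; dose as in the result columns while the protocol names 77 µM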
Target sequence (P06280 whole entry, looked up): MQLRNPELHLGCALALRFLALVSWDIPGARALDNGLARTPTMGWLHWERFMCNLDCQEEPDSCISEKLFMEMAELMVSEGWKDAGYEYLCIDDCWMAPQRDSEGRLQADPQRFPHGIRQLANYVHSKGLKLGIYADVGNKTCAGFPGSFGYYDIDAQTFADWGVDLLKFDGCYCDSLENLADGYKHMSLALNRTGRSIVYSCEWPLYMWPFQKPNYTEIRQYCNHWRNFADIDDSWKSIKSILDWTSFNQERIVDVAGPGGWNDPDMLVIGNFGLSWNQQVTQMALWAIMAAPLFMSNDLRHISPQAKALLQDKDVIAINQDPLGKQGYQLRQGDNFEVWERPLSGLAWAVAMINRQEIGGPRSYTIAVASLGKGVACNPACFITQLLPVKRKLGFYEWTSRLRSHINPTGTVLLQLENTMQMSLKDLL
Rango-impB inh – prevents formation of the Rango-importin beta complex. Rango CFP/YFP FRET sensor + importin beta, 45 min. Potency, µM (doses to about 92.2 µM), inactives show at the highest dose inhibition of complex formation. actives 0.031% (n = 340,000). AID 540263; active = rising FRET ratio curve, often small or poorly fitted; inconclusive = mostly compound fluorescence or quenching in the first reads; inactive = flat curves in all reads;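 also: potency is read from the fitted curve at half-maximal effect; 0% = DMSO wells and 100% = buffer wells lacking importin beta; nearly all actives have a fitted effect of over 15% in size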
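FRET biosensor (snurportin 1 IBB flanked by EYFP and cerulean), 50 nM, with compound 5 min, then 0.125 microM importin beta in PBS, 1 mM DTT, 0.02% Tween-20, 0.1% BSA. CFP/YFP ratio read after 45 min at room temperature; pre-read flags interference.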
miR-21 reporter – miR-21 reporter, rising signal; HeLa miR-21 FLuc reporter, luciferase, 48 h; Potency, µM (doses to about 38.3 µM), without a hit: top-dose reporter change, positive = more light; 340,000 tested, under 10 active; AID 2288; active = well fitted rising curve with a large enough effect; inconclusive = small, poorly fitted or top-dose-only effect; inactive = no such curve, though single readings can be large or run the other way;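 also: % of control where 0% means no effect; miR-21 action dims this reporter so a rising signal means less miR-21 action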
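Compounds were titrated across several concentrations (up to approximately 40 uM) and incubated 48 hours with HeLa miR-21-FLuc reporter cells (miR-21 target sequence downstream of FLuc, endogenous miR-21). Readout was firefly luciferase luminescence after lytic detection reagent.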
An asterisk follows results filed as active; ? = inconclusive; nt = no result given; & = joins results of further samples. An excerpt; the hit share may differ from the screen's.

entry	SMILES	Rango dissoc inh	GLA inh pH 4.5	Rango-impB inh	miR-21 reporter
1	C/C(=N\NC(=O)Cn1nc(C)c([N+](=O)[O-])c1C)c1ccc(O)cc1	-13%	-7	0.4%	-3%
2	COC(=O)CCNC(=O)CCc1ccc(S(=O)(=O)N2CCCCCC2)cc1	-4%	nt	-0.3%	nt
3	Cc1ccc(Nc2nc(-c3c(C)nc4ccccn34)cs2)cc1	9%	-7	-0.4%	28%
4	CCn1c2ccccc2c2nnc(SCC(=O)NC3CCS(=O)(=O)C3)nc21 (stereo unspecified)	23%	2	0.0%	-15%
5	COc1cc(OC)cc(C(=O)O/N=C(\N)c2ccccn2)c1	-1%	-4	-0.5%	-62%
6	Cc1ccc(C(C)C)c(OCC(=O)N/N=C/c2ccc(S(=O)(=O)O)o2)c1	12%	-3	-3.5%	17%
7	COC(=O)c1ccc(C)c(NC(=O)c2nn(C)c(=O)c3ccccc23)c1	0%	-1	1.6%	2%
8	N#Cc1ccsc1NC(=O)c1cnccn1	2%	4	-0.1%	-10%
9	CC(=O)Nc1ccc(NC(=O)C/C(C)=N/NC(=O)C(=O)N2CCCC2)cc1	1%	11	4.7%	-2%
10	CCOC(=O)c1ccc(NC(=O)C2CCCN(c3cnccn3)C2)cc1 (stereo unspecified)	-1%	nt	-4.3%	-34%&-26%
11	O=C1CC[C@@H](CN(Cc2ccccn2)Cc2nc(-c3ccc(C(F)(F)F)cc3)no2)N1	8%	-16	1.2%	-2%
12	O=C(CCn1ccc2cc(S(=O)(=O)N3CCCC3)ccc21)NCc1ccccc1	0%	nt	-4.6%	5%
13	COc1ccc(NC(=O)c2ccccc2[N+](=O)[O-])cc1OC	-8%	-4	3.9%	-1%
14	COc1ccc(OCCCC(=O)Nc2cccc(S(=O)(=O)N3CCCCCC3)c2)cc1	-4%	nt	-1.4%	nt
15	Cc1c(C)c2c(OCC(=O)NCC(C)C)cc3c(c2oc1=O)CCC(C)(C)O3	1%	nt	2.7%	-2%
16	COc1ccccc1N1CCN(S(=O)(=O)c2ccc(-c3cnc(C4CC4)o3)cc2)CC1	1%	nt	3.0%	1%&29%
17	Cc1ccc(-c2csc(NCCn3c(-c4ccncc4)nc4cc(C(F)(F)F)ccc43)n2)cc1	0%	nt	-3.5%	nt
18	COC(=O)C1=C(C)C(c2ccc(OC)cc2)NC(=O)N1 (stereo unspecified)	-5%	-4	2.0%	4%
19	O=C(CCS(=O)(=O)c1cccc2nsnc12)N1CCN(c2ccccc2F)CC1	12%	-3	0.7%	3%
20	O=C(NCc1nnc(SCC(=O)N2CCN(c3ccccc3)CC2)o1)c1c(F)cccc1F	22%	nt	-0.5%	9%
21	C/C(=N/NC(=O)CNC(=O)COc1cccc(C)c1)c1ccco1	-5%	2	2.6%	7%
22	O=[N+]([O-])c1ccc(CSC2=NCCN2)cc1	-14%	nt	-2.0%	8%
23	COC(=O)C1CCN(C(=O)c2ccc(OC3CCN(Cc4ccccn4)CC3)cc2)CC1	0%	-2	-0.6%	-3%
24	N#C/C(=C\c1ccc(O)c(O)c1)C(=O)NCCc1ccccc1	?	-24	5.1%	nt
25	O=c1[nH]c(-c2ccccc2)ncc1OCc1ccccc1	-17%	nt	-0.2%	nt
26	O=C(COC(=O)c1cnccn1)c1ccc([N+](=O)[O-])cc1	12%	-3	1.5%	4%
27	Cc1cc([N+](=O)[O-])nn1Cc1ccccc1F	0%	1	0.3%	0%
28	Cc1cc(C)c(OCCCCN2CCC(C)CC2)c(Br)c1	-3%	-14	-4.7%	9%
29	c1ccc(OCCCn2nnc(-c3cccnc3)n2)cc1	-7%	5	0.1%	-6%
30	CCC(=O)NC(=S)Nc1ccccc1OC	?	-1	6.1%	-10%
31	Cc1ccc(NC(=O)COC(=O)CCC(=O)c2cccs2)cc1C	3%	0	-3.1%	-6%
32	c1coc(Cn2c(SCc3nc4ccccc4[nH]3)nnc2-c2cccs2)c1	-22%	9	-0.2%	1%
33	O=C(CN(CC1CCCO1)C(=O)CNS(=O)(=O)c1ccc(Cl)cc1)NC1CCCCC1 (stereo unspecified)	-8%	nt	-1.8%	-1%
34	COc1ccc(C(C)=O)cc1CN1C(=O)C(C)N(c2ccc(C)cc2)C1=O (stereo unspecified)	8%	2	4.1%	-10%
35	COc1ccccc1NC(=O)CSc1nnc(NC(=O)c2ccco2)s1	33%	nt	-0.1%	-5%
36	CN(C)c1ccc(S(=O)(=O)NCC(=O)NCc2ccccc2)cc1[N+](=O)[O-]	0%	nt	1.4%	-5%
37	Cc1cc(NS(=O)(=O)c2ccc(NC(=O)c3ccc(Cl)cc3Cl)cc2)no1	-10%	nt	-4.2%	-9%
38	CC(=O)C1=C(O)C(=O)N(CCN2CCOCC2)C1c1ccccc1 (stereo unspecified)	36%	-4	0.6%	-5%
39	COc1ccc(S(=O)(=O)N2CCCCC2)cc1C(=O)Nc1cc(C)on1	0%	nt	-2.1%	-4%
40	O=C(Nc1ccc(F)cc1)C(=O)C1C(=O)Nc2ccccc21 (stereo unspecified)	25%	-1	-2.6%	-17%

The last 2 records of the section above come first, to join the parts:
entry	SMILES	Rango dissoc inh	GLA inh pH 4.5	Rango-impB inh	miR-21 reporter
39	COc1ccc(S(=O)(=O)N2CCCCC2)cc1C(=O)Nc1cc(C)on1	0%	nt	-2.1%	-4%
40	O=C(Nc1ccc(F)cc1)C(=O)C1C(=O)Nc2ccccc21 (stereo unspecified)	25%	-1	-2.6%	-17%
41	CCC(C)(C)NC(=O)C(c1cccs1)N(C(=O)c1ccn[nH]1)c1ccccc1 (stereo unspecified)	2%	-1	0.4%	0%
42	O=C(Nc1nc(-c2ccc(Cl)cc2)cs1)c1cccnc1	0%	1	-1.5%	-7%
43	O=C(NCc1cccnc1)c1ccccc1NS(=O)(=O)c1ccc(F)cc1F	-19%	-4	0.6%	4%
44	Cc1ccccc1Oc1ccc2c(c1)[C@@H]1C[C@H]3[C@@H](C(=O)N1CC2)[C@H](C)ON3C	-18%	nt	-5.6%	nt
45	COc1ccccc1NC(=O)COC(=O)c1cc([N+](=O)[O-])ccc1N1CCCC1	0%	nt	?	nt
46	Fc1ccccc1CNC(=S)NCc1ccc(Cl)cc1	-15%	nt	8.0%	-6%
47	O=C1OC(c2ccccc2)=C/C1=C\N1CCOCC1	10%	-10	0.5%	-5%
48	COc1ccc(CC(C)N2CCN(c3ccccc3)CC2)cc1OC (stereo unspecified)	-2%	-2	-0.1%	-1%
49	Nc1nccnc1C(=O)OCC(=O)NNC(=O)c1ccccc1	-16%	nt	-2.8%	-2%
50	CCOc1ccc(C(=O)NCC(=O)OCC(=O)Nc2cccc(S(=O)(=O)N3CCCC3)c2)cc1	24%	0	2.9%	-2%
51	COc1cc(OC)c(NC(=O)Cc2cccs2)cc1Cl	-6%	nt	-1.1%	-10%
52	O=C(Cc1ccc(Cl)c(Cl)c1)N/N=C/c1cccnc1	1%	nt	4.9%	0%
53	C=CCn1c(SCC(=O)Nc2nccs2)nnc1-c1cc2cccc(OC)c2o1	-10%	-11	1.8%	-1%
54	C/C=C(\C)C(=O)Nc1cccc(C2=NOC3(C2)C[C@@H](C(N)=O)N(C(=O)c2ccccc2C(=O)c2ccccc2)C3)c1 (stereo partly specified)	-11%	-5	2.5%	6%
55	CN1CCN(c2nc3c(c(=O)[nH]c(=O)n3C)n2Cc2ccccc2F)CC1	10%	nt	-0.2%	0%
56	N#Cc1c(F)cccc1N1CCN(Cc2ccc3c(c2)OCO3)CC1	-7%	nt	0.4%	-12%
57	CN1CCN(C(=O)c2ccc(Cl)cc2)CC1	1%	nt	-0.6%	-4%
58	CCOc1cccc(C(=O)NC(=S)Nc2cccc(NC(=O)c3ccccc3Cl)c2)c1	3%	2	?	-2%
59	COc1cc(OC)cc(C(=O)Nc2ccc(NC(=O)c3ccco3)c(Cl)c2)c1	7%	0	0.9%	-27%
60	CC(OCC(O)CNCC1COc2ccccc2O1)c1ccc(Cl)cc1 (stereo unspecified)	-2%	1	-0.8%	-1%
61	COCC(C)n1c(C)cc(C(=O)COC(=O)c2cnc(Cl)c(Cl)c2)c1C (stereo unspecified)	8%	nt	-0.7%	nt
62	O=c1cc(CNc2cc(Cl)ccc2Cl)nc2sccn12	-14%	-8	-3.8%	-57%
63	Cc1ccc(N(C(=O)c2ccccc2Cl)C2=NC(C)CS2)c(C)c1 (stereo unspecified)	-10%	-17	5.7%	1%
64	CCCCn1nc(C(=O)Nc2ccccc2N2CCCC2)c2ccccc2c1=O	-4%	nt	0.4%	nt
65	CCC1COCCS(=O)(=O)N1Cc1ccc(F)cc1 (stereo unspecified)	-8%	nt	-0.3%	-1%
66	CN(C)c1oc(-c2ccccc2[N+](=O)[O-])nc1C#N	9%	-3	0.0%	-6%
67	COc1ccc(C(C)NC(=S)NCc2ccc(F)cc2)cc1OC (stereo unspecified)	8%	nt	1.0%	-7%
68	O=C(O)CSc1cccc[n+]1[O-]	12%	6	-1.9%	-1%
69	C=CCn1c(SCC(=O)N2CCCCCC2)nc2ccccc2c1=O	17%	nt	3.7%	10%
70	CCOC(=O)c1cc(Br)c(=O)n2ccccc12	-12%	-5	-3.2%	-14%
71	COc1cccc(N2CCN(C(=O)CN(C)S(=O)(=O)c3ccc4c(c3)CCC(=O)N4)CC2)c1	9%	12	-1.5%	-1%
72	CSc1nc2ccc(NS(=O)(=O)c3ccc(CNC(C)=O)cc3)cc2s1	0%	nt	-3.2%	nt
73	Cc1cc(NC(=O)CSc2nc(CCC3CCCC3)nc3ccccc23)no1	7%	-2	-0.9%	-7%
74	C=CCC(c1ccccc1F)N(CCN1CCOCC1)C(=O)Nc1cccc(Cl)c1 (stereo unspecified)	-4%	-10	-0.1%	0%
75	O=S(=O)(c1cccs1)N1CCN(c2ccc(F)cc2)CC1	2%	nt	2.6%	-9%
76	CC(=O)c1cccc(N(CC(=O)N2CCOCC2)S(C)(=O)=O)c1	5%	-4	-1.6%	-1%
77	Cc1ccc2nc(CSc3nc(C)cc(C)c3C#N)[nH]c2c1	?	-5	?	-32%
78	O=C(N1CCOCC1)C12CC3CC(C1)CC(c1ccccc1)(C3)C2	-3%	3	?	-4%
79	O=C(N/N=C/c1ccccc1)c1c(O)c2ccccc2[nH]c1=O	-11%	5	1.7%	-49%
80	O=C1Nc2ccc(S(=O)(=O)NCc3ccco3)c3cccc1c23	-15%	nt	?	nt
81	O=C(O)C1=C[C@@H](c2ccc3c(c2)OCO3)C[C@@H](OCCCCO)O1	0%	4	0.5%	-2%
82	CC(NC(=O)CNC(=O)c1ccc2c(c1)OCO2)c1ccc(S(N)(=O)=O)cc1 (stereo unspecified)	-3%	nt	1.4%	nt
83	Cc1ccc(NC(=O)CCN2CC(C)OC(C)C2)cc1C (stereo unspecified)	0%	nt	4.6%	0%
84	Clc1ccc(-c2nnc3sc(-c4ccco4)nn23)c(Cl)c1	nt	-1	nt	-1%
85	COc1ccc(-n2cc(CNC3CCOCC3)c(-c3cccc(F)c3)n2)cc1	1%	-8	2.1%	1%
86	CN(CC(=O)NCc1ccccc1Cl)CC(=O)Nc1ccccc1Br	17%	nt	-8.3%	nt
87	COc1ccc(C(=O)/C=C/Nc2ccc(S(=O)(=O)Nc3nc(C)cc(C)n3)cc2)c(OC)c1	?	-10	?	-17%
88	Cn1cc(Br)c(C(=O)Nc2sc3c(c2C#N)CCC3)n1	-12%	-8	-0.2%	-40%
89	Cc1c2c(c(C)n1C)C(C(=O)NC1CCCCC1)N(Cc1ccccc1)C2=O (stereo unspecified)	1%	3	-0.8%	1%
90	Cc1nnc(SCC(=O)N2CC(=O)Nc3ccccc32)s1	-4%	13	-2.0%	2%
91	CCc1ccc2c(c1)C(NC(C)=O)C(=O)N2CC (stereo unspecified)	-10%	8	-5.1%	-4%
92	CC(Oc1ccc(Cl)cc1)c1ccnn1S(C)(=O)=O (stereo unspecified)	14%	4	3.9%	-1%
93	CCC(Nc1ccc(OC)cc1)C(=O)N/N=C/c1ccc([N+](=O)[O-])cc1 (stereo unspecified)	8%	-6	-0.2%	-14%
